Assay outcomes: PubChem BioAssay, Fisher Drug Discovery Resource Center
NPYLR7 agonist: mosquito NPYLR7 agonism. HEK293T NPYLR7/Galpha15, GCaMP6s calcium fluorescence. activation, % at 10 µM. hit rate 0.15% among 270,000. AID 1259423; in the data active means activation above about 40%;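 further: 0% = vehicle and 100% = reference agonist at the receptor; some compounds past the cut are filed as inactive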
NPYLR7 agonist max-min: also measured in NPYLR7 agonist; calls as there; activation, %; measured here: Max-Min RFU normalised activation; some inactives read as strong as hits;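 span of the calcium signal over five minutes; 0% = vehicle and 100% = native peptide agonist; compound fluorescence can raise it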
The depositor's hits bear a star. Some of the compounds tested (hit frequency here may not be typical).

1) COc1ccc(CCN(Cc2ccc(C)o2)C(=O)CN(C(=O)c2cccs2)C2CCCCC2)cc1OC
2) CC(=O)Oc1ccc2c(c1OC(C)=O)OCC1(O)Cc3c(cc(OC(C)=O)c(OC(C)=O)c3OC(C)=O)C21 (stereo not drawn)
3) O=C1CCC(C(=O)N2CCCC(Nc3ccc(F)cc3)C2)=NN1 (stereo not drawn)
4) Cc1c(C(C)NC(=O)CCOc2ccccc2)cnn1-c1ccccn1 (stereo not drawn)
5) CC1(C)O[C@@H]2C[C@@](OCc3ccccc3F)(C(=O)NCc3ccco3)CC(OCc3cccc(C(F)(F)F)c3)[C@@H]2O1 (stereo partly drawn)
6) CN(C)S(=O)(=O)c1cccc(S(=O)(=O)c2cccc(S(=O)(=O)N(C)C)c2)c1

Screen / compound no. | 1 | 2 | 3 | 4 | 5 | 6
NPYLR7 agonist max-min | 7.1 | 5.7 | 0.8 | 3.5 | 24.9 | 5.6
NPYLR7 agonist | 6.1 | 16.6 | 3.5 | 9.1 | 21.4 | 5.3

7) Cc1nc2c(cnn2C(C)C)cc1C(=O)NCCc1cccc(F)c1
8) C[N+]1(C)[C@@H]2CC(OC(=O)C(O)(c3cccs3)c3cccs3)C[C@H]1[C@@H]1O[C@@H]12 (stereo partly drawn)
9) CCc1ccc(CN(C)C(=O)c2ccc(C(C)=O)s2)nc1
10) COCc1nc(-c2ccc(CN3CCN(C(=O)C(C)Oc4ccccc4)CC3)cc2)no1 (stereo not drawn)
11) Cc1cc(C)cc(NC(=O)Cn2ccn(Cc3ccc(Cl)cc3)c(=O)c2=O)c1
12) CCOc1ccc(-c2cc3c(=O)n(CC(=O)Nc4ccc(OC)cc4OC)ncn3n2)cc1

Screen / compound no. | 7 | 8 | 9 | 10 | 11 | 12
NPYLR7 agonist max-min | 6.3 | -11.0 | 3.0 | 15.1 | 4.8 | -15.6
NPYLR7 agonist | 8.8 | -8.2 | 6.1 | 4.5 | 9.0 | -11.2

13) Cc1cccc(Nc2ncccc2C(=O)N[C@@H]2C[C@H]3CC[C@@H]2C3)c1C
14) CC1CCCCN1Cc1nc2c(c(=O)n(C)c(=O)n2C)n1Cc1ccc(Br)cc1 (stereo not drawn)
15) COc1cc(CN2C(=O)C(C)ON=C2Cc2ccccc2)cc(OC)c1 (stereo not drawn)
16) CCc1nc2ccc(C(=O)N(C)CCN(C)C)cn2c1N(CC)C(=O)NCCc1ccccc1
17) O=C(c1cccnc1Cl)N1CCN(Cc2ccc(-c3noc(C4CCCC4)n3)cc2)CC1
18) COc1ccc(-c2cc(Nc3ccc(NS(=O)(=O)c4ccc(C)cc4)cc3)ncn2)cc1OC

Screen / compound no. | 13 | 14 | 15 | 16 | 17 | 18
NPYLR7 agonist max-min | -1.6 | 9.0 | -3.0 | -24.7 | 7.9 | -1.0
NPYLR7 agonist | 1.2 | 9.8 | -0.5 | -19.1 | 5.1 | 0.3

19) COc1cccc(C2=NC(=Cc3ccc(F)c(F)c3)C(=O)O2)c1
20) Cc1ccc(NC(=O)N2CCC(Cc3ccc(C(F)(F)F)cc3)CC2)cc1
21) Cc1c(C)n2c3c(=O)n(C)c(=O)n(C)c3nc2n1-c1ccccc1OCC(=O)C(C)(C)C
22) COCCN(CC(=O)Nc1nc(CC(=O)NCc2ccc3c(c2)OCO3)cs1)C(=O)c1ccc(Cl)c(Cl)c1
23) O=C(Nc1ccc(F)cc1F)c1cnn2c(C(F)(F)F)cc(-c3cccs3)nc12
24) Cc1ccccc1-c1nc(Cn2cc(CO)c(-c3cccs3)n2)c(C)o1

Screen / compound no. | 19 | 20 | 21 | 22 | 23 | 24
NPYLR7 agonist max-min | 8.5 | 2.6 | 2.4 | 11.0 | -6.2 | 0.4
NPYLR7 agonist | 1.8 | 3.5 | 0.4 | 9.9 | -5.5 | 0.2

25) Cc1ccccc1-c1ncc(CNC2C=CS(=O)(=O)C2)s1 (stereo not drawn)
26) COC(=O)c1sc(N)c(C(=O)OC)c1COC(=O)C12CC3CC(CC(O)(C3)C1)C2
27) CC1CCC(C)N1C(=O)c1cnn2c(-c3ccccc3)ccnc12 (stereo not drawn)
28) CC(C)(C)c1cc(NCc2ccc(F)c(F)c2)n(C(C)(C)C)n1
29) CC(CC1=CCN(CCO)CC1)NC(=O)c1cc(F)ccc1F (stereo not drawn)
30) O=C(CCc1ccc2c(c1)OCO2)N1CCC(n2c(=O)[nH]c3ccccc32)CC1

Screen / compound no. | 25 | 26 | 27 | 28 | 29 | 30
NPYLR7 agonist max-min | 15.7 | 9.5 | 6.5 | 65.9 | 5.2 | -14.0
NPYLR7 agonist | 23.3 | 18.4 | 8.7 | 0.7 | 7.4 | -9.2

Along the list, quoted from above.
NPYLR7 agonist max-min, nos. 25 to 30: 15.7, 9.5, 6.5, 65.9, 5.2, -14.0

Following part
31) O=C(CCC1CCCC1)Nc1c(-c2ccccc2)nc2ccccn12
32) O=C(NCCc1nnc2c(C(F)(F)F)cccn12)c1cc2ccccc2[nH]1
33) CCNc1nc(C)c(C(=O)NCc2c(C)noc2C)s1
34) O=C(CSc1nc2sc3c(c2c(=O)n1C1CCCC1)CCCC3)NC1CC1
35) CN(C)Cc1nnc(C(=O)N2C[C@H]3CC=CC[C@H]3C2)o1
36) O=C(O)c1c(S(=O)(=O)N2CCCOCC2)sc2c1CCNC2

Screen / compound no. | 31 | 32 | 33 | 34 | 35 | 36
NPYLR7 agonist max-min | 3.3 | 7.8 | -1.6 | -3.6 | 1.2 | 4.5
NPYLR7 agonist | 2.6 | 16.0 | 0.7 | -0.5 | 4.6 | 5.1

37) CN(C)S(=O)(=O)N1CCC(Oc2ccc(C(=O)NCCc3ccncc3)cc2)CC1
38) COc1ccc(-c2cnnc(NC(C)c3cn(C)nc3C)n2)cc1F (stereo not drawn)
39) O=C(c1ccccc1)N1CCC(NCCN2CCC(c3ccccc3)C2)CC1 (stereo not drawn)
40) O=C(/C=C/c1ccoc1)NCCNc1ccccc1
41) Cc1sc2nc(C(C)OC(=O)c3cccc(N4CCCC4=O)c3)[nH]c(=O)c2c1C (stereo not drawn)
42) Cn1c(NC(=O)c2ccccc2[N+](=O)[O-])cc(=O)n(C)c1=O

Screen / compound no. | 37 | 38 | 39 | 40 | 41 | 42
NPYLR7 agonist max-min | 6.6 | 7.4 | 15.6 | -2.1 | -2.8 | 29.7
NPYLR7 agonist | 14.4 | 2.2 | 16.4 | -0.1 | 3.8 | 24.0

Entries of single compounds, quoted from the list:
Shown for O=C(c1ccccc1)N1CCC(NCCN2CCC(c3ccccc3)C2)CC1 (stereo not drawn) = NPYLR7 agonist max-min: 15.6; NPYLR7 agonist: 16.4
Shown for CN(C)S(=O)(=O)N1CCC(Oc2ccc(C(=O)NCCc3ccncc3)cc2)CC1 = NPYLR7 agonist max-min: 6.6; NPYLR7 agonist: 14.4

Further structures follow:
43) CCC(COC)NC(=O)N1CCn2c(nnc2-c2ccccc2)C1 (stereo not drawn)
44) COc1cc(OC)cc(C(=O)N2CCCC(OCc3ccc(F)c(F)c3)C2)c1 (stereo not drawn)
45) O=C(O)c1ccccc1-c1nccn1CCc1cccc(F)c1
46) COc1cccc2c(SCC(=O)N3CC(C)OC(C)C3)nccc12 (stereo not drawn)
47) O=C(c1ccc(Cl)cc1Cl)N1CCCC(OCc2ccc(F)cc2F)C1 (stereo not drawn)
48) O=C(NC1CC2CCC(C1)N2Cc1ccc2c(c1)OCO2)c1cccc2ccccc12 (stereo not drawn)

Screen / compound no. | 43 | 44 | 45 | 46 | 47 | 48
NPYLR7 agonist max-min | 4.4 | 3.4 | -6.9 | 1.2 | -2.5 | 12.5
NPYLR7 agonist | 6.4 | -3.0 | -6.7 | 4.4 | -4.0 | 0.5

49) Cc1cccc(C)c1Oc1ncccc1CNC(=O)C1CCCN1C(N)=O (stereo not drawn)
50) CCN(CC)C(=O)[C@@H]1C[C@@H](N)CN1C(=O)c1cccc2c1NCCC2
51) Cn1c(-c2cccc(F)c2)cc2cnc(Nc3cccc(S(C)(=O)=O)c3)cc21
52) Cc1ccc(C2(CCN)CCOC(C)(C)C2)cc1 (stereo not drawn)
53) O=C(c1cccs1)N1CCN(c2ccc(F)cc2)CC1
54) Fc1ccc(N2CCN(c3nc(-c4ccc(Cl)cc4)nc4ccccc34)CC2)c(F)c1

Screen / compound no. | 49 | 50 | 51 | 52 | 53 | 54
NPYLR7 agonist max-min | 7.1 | -4.3 | 16.7 | -3.6 | -10.8 | 7.7
NPYLR7 agonist | 20.4 | 2.4 | 8.2 | -2.4 | -2.5 | 1.3

55) O=c1c2ccccc2nnn1CN1CCC(c2nc3ccccc3o2)CC1
56) CN1CCN(c2cc(-c3csc4ccccc34)nc(N)n2)CC1
57) O=C(CSc1ccc(C(F)(F)F)cn1)N1CCC(O)(Cc2ccccc2)CC1
58) O=C(C1CCS(=O)(=O)CC1)N1CC(c2ccncc2)C1
59) CCCc1nnc(NC(=O)c2ccc(F)cc2Cl)s1
60) C=CCN(CC=C)C(=O)Cn1cnc2c1c(=O)n(C)c(=O)n2C

Screen / compound no. | 55 | 56 | 57 | 58 | 59 | 60
NPYLR7 agonist max-min | 1.4 | 2.9 | -12.6 | -2.9 | -6.4 | 2.8
NPYLR7 agonist | 1.5 | 5.1 | -6.8 | 4.8 | -2.7 | 3.5

61) FC(F)(F)c1cc(-c2cccs2)nc(N2CCOCC2)n1
62) CCOCC(O)CN(Cc1c(-c2ccccc2)nn(C)c1Oc1ccccc1Cl)CC1CCCO1 (stereo not drawn)
63) CC(NCc1cccc(C#N)c1)c1cccc(Br)c1 (stereo not drawn)
64) CCCCc1ccc(C(=O)Nc2c(-c3cccc(OC)c3)nc3ccccn23)cc1
65) c1nc(NC2CCCCCC2)c2c3c(sc2n1)CCCC3
66) Cn1cc(C(=O)N2CCCC2)c2nn(-c3ccccc3)c(=O)c-2c1

Screen / compound no. | 61 | 62 | 63 | 64 | 65 | 66
NPYLR7 agonist max-min | -2.4 | 16.5 | -1.8 | -12.0 | -8.9 | 3.1
NPYLR7 agonist | -2.2 | 18.8 | -1.1 | -14.3 | -5.8 | 3.4

Structural class: those above containing an NH in an aromatic ring.
30) O=C(CCc1ccc2c(c1)OCO2)N1CCC(n2c(=O)[nH]c3ccccc32)CC1
32) O=C(NCCc1nnc2c(C(F)(F)F)cccn12)c1cc2ccccc2[nH]1
41) Cc1sc2nc(C(C)OC(=O)c3cccc(N4CCCC4=O)c3)[nH]c(=O)c2c1C (stereo not drawn)

Screen / compound no. | 30 | 32 | 41
NPYLR7 agonist max-min | -14.0 | 7.8 | -2.8
NPYLR7 agonist | -9.2 | 16.0 | 3.8

(more compounds)
67) CC(C)C[C@H]1C(=O)N2CCC[C@H]2[C@]2(O)O[C@](NC(=O)[C@@H]3C=C4c5cccc6[nH]c(Br)c(c56)CC4N(C)C3)(C(C)C)C(=O)N12 (stereo partly drawn)
68) Cc1cnc(C)c(-c2ccc3c(c2)CC(CNC(=O)C2(c4ccc(Cl)cc4)CC2)O3)n1 (stereo not drawn)
69) CC(=O)c1sc2nc(CSc3nnc4n3CCCCC4)[nH]c(=O)c2c1C
70) COc1cccc(-c2nn(CC(=O)N3CCCc4ccccc43)c(=O)c3nc(C)sc23)c1
71) CS(=O)(=O)Nc1cccc(NC(=O)C2Cc3c(-c4cccc(C(N)=O)c4)ccnc3O2)c1 (stereo not drawn)
72) CCC(C)C(N=C1NS(=O)(=O)c2ccccc21)C(=O)Nc1nnc(C2CC2)s1 (stereo not drawn)

Screen / compound no. | 67 | 68 | 69 | 70 | 71 | 72
NPYLR7 agonist max-min | -7.3 | 3.5 | 6.4 | 1.6 | 10.0 | -1.2
NPYLR7 agonist | -4.3 | 19.9 | -0.5 | 1.6 | 4.5 | 0.6

73) CC(CCN1CCCn2cncc2C1)c1ccccc1 (stereo not drawn)
74) COCCN(CCOC)c1cc(C)nc(-n2cc([N+](=O)[O-])cn2)n1
75) COc1ccc(OC)c(S(=O)(=O)N2CCCN(c3c(-c4ccc(OC)c(OC)c4)cnc4ncnn34)CC2)c1
76) COc1cc(CN2CCC(CO)(CCCc3ccccc3)CC2)cc(OC)c1O
77) Cc1ccc(C23CC4CC(CC(C(=O)NN5CCN(CCO)CC5)(C4)C2)C3)cc1
78) COCCOC(=O)C1=C(C)NC2=C(C(=O)CCC2)C1c1cccc(OC)c1OC (stereo not drawn)

Screen / compound no. | 73 | 74 | 75 | 76 | 77 | 78
NPYLR7 agonist max-min | 5.6 | 10.2 | 9.9 | -10.8 | -15.1 | -10.4
NPYLR7 agonist | 4.0 | 4.2 | 17.8 | -6.5 | -6.5 | -6.3

79) Cc1cc(C)cc(C(=O)Nc2c(C)nc3ccccn3c2=O)c1
80) NC(=O)C1CCN(C(=O)CCc2ccsc2)CC1
81) COc1ccc(F)c(CN2CCC(CCC(=O)N3CCN(c4ccccc4)CC3)CC2)c1
82) CC(C)NC(=O)c1ccnc(-c2ccc3c(c2)OCCO3)c1
83) CC(Sc1nnc(COc2ccc(F)cc2)o1)C(=O)Nc1ccc(Cl)cc1 (stereo not drawn)
84) COc1ccc(/C=C/CN2CCCC(C(=O)c3cc(F)ccc3F)C2)cc1 (stereo not drawn)

Screen / compound no. | 79 | 80 | 81 | 82 | 83 | 84
NPYLR7 agonist max-min | 2.0 | -6.1 | 4.9 | 23.1 | 21.9 | 6.7
NPYLR7 agonist | 4.3 | -4.0 | 6.1 | 30.5 | 25.2 | 6.4

85) Oc1c2cccnc2cn1Cc1csc(Cc2ccccc2)n1
86) CC(C)NC(=O)NC1CCN(c2ccccc2C(=O)NCc2cccc(F)c2)CC1
87) CC1(C)C(=O)N(c2ccccc2)C(=O)c2ccccc21
88) COc1cccc(NC(=Nc2nc(C)cc(C)n2)NC(C)=O)c1
89) Cc1cccc(OCC(=O)N2CCN(S(=O)(=O)c3ccc(F)c(F)c3F)CC2)c1C

Screen / compound no. | 85 | 86 | 87 | 88 | 89
NPYLR7 agonist max-min | 3.3 | 3.1 | -4.6 | -9.0 | 8.0
NPYLR7 agonist | -0.2 | -2.5 | 2.3 | -4.2 | 5.3
